miR-21 FLuc – miR-21 reporter, rising signal | HeLa miR-21 FLuc reporter, luciferase, 48 h | Potency, µM (highest dose often 38.3 µM), for inactives: at the highest dose reporter change, positive = more light | 340,000 tested, under 10 active; active = well fitted rising curve with a large enough effect; inconclusive = small, poorly fitted or top-dose-only effect; inactive = no such curve, though single readings can be large or run the other way;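 also: % of control where 0% means no effect; miR-21 action dims this reporter so a rising signal means less miR-21 action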
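Compounds were titrated across several concentrations (up to approximately 40 uM) and incubated 48 hours with HeLa miR-21-FLuc reporter cells (miR-21 target sequence downstream of FLuc, endogenous miR-21). Readout was firefly luciferase luminescence after lytic detection reagent.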
* marks the source's active call; other numbers are inactive results; ? = inconclusive.

miR-21 FLuc	structure
-32%	CCc1cc2c(cc3c(=O)n(CC(=O)NC4CCC(C)CC4)nc(CC)n32)s1 (stereo not drawn)
24%	CCCN(CCC)C(=O)CSc1nc2ccccc2c(=O)n1Cc1ccco1
2%	Cc1ccc(CNC(=O)CCNS(=O)(=O)c2ccc3c(c2)CCCC(=O)N3)cc1
15%	COC(=O)C1=C(C)NC(C)=C(C(=O)OCC2CCCO2)C1c1ccc(Cl)c([N+](=O)[O-])c1 (stereo not drawn)
-2%	CSc1ccc(CCNC(=O)Cn2ncn3c(cc4ccccc43)c2=O)cc1
-2%	CCc1ccc(N2CCn3c2nc2c3c(=O)n(CCCc3ccccc3)c(=O)n2C)cc1
0%	COc1cc(OC)c(NC(=O)C2=C(C)C(=O)OC23CCCCCC3)cc1Cl
0%	COc1ccc(CCNS(=O)(=O)c2ccc3c(c2)c(=O)n(C)c(=O)n3C)cc1OC
-8%	O=C(Nc1cccc(OCc2cc(=O)n3ccccc3n2)c1)c1ccccc1Br
0%	CCC(CC)C(=O)Nc1ccc(S(=O)(=O)N2CCC(c3nc4ccccc4s3)CC2)cc1
-3%	COc1ccc(CNc2nc(SCc3ccccc3Cl)nc3ccccc23)cc1
3%	Fc1ccc(Nc2ncnc3onc(-c4cccc(Cl)c4)c23)c(F)c1
-1%	CCOC(=O)c1c(NC(=O)c2cc(-c3ccc(Cl)cc3)on2)sc(C)c1C
3%	CC(C)COc1ccc(C(=O)N2CCC(c3nc4ccccc4s3)CC2)cc1
-8%	Cc1ccc(C(=O)Nc2cc3cc(Cl)ccc3oc2=O)cc1
0%	CC1CCN(CC2CCN(C(=O)NCc3ccccc3)CC2)CC1
0%	CCN(CC)S(=O)(=O)c1ccc2c(c1)N(CC(=O)N1CCN(c3cccc(OC)c3)CC1)C(=O)CO2
5%	COc1cc2c(cc1NS(=O)(=O)c1cccc(C#N)c1)n(C)c(=O)n2C
-9%	CC(=O)N1CCc2cc(S(=O)(=O)NC(Cc3ccccc3)C(=O)Nc3cc(C)ccc3C)ccc21 (stereo not drawn)
-10%	CCOc1ccc(NC(=O)c2cc3nc(-c4ccc(OC)cc4)cc(C(F)(F)F)n3n2)cc1
-7%	Cc1c(C(=O)N(Cc2ccc(N(C)C)cc2)CC2CCCO2)oc2ccc(Br)cc12 (stereo not drawn)
2%	CCCS(=O)(=O)c1nc(S(=O)(=O)c2ccc(C)cc2)c(NC)s1
-10%	COC(=O)c1c(-c2cccs2)csc1NC(=O)COc1c(C)ccc(C)c1C
-13%	N#Cc1nc(COc2ccccc2Cl)oc1NCCc1ccccc1
?	COc1ccc(OCCCCn2c(C3CC(=O)N(c4cccc(Cl)c4)C3)nc3ccccc32)cc1 (stereo not drawn)
2%	CC(Sc1nc(-c2ccccc2)c(C#N)c(=O)[nH]1)C(=O)Nc1ccc(F)cc1 (stereo not drawn)
0%	COc1ccc(CCNC(=O)c2ccc3c(c2)sc2nc(-c4ccc(C)cc4)cn23)cc1OC
?	O=C1CC(c2nc3ccccc3n2CCCCOc2ccccc2)CN1c1ccccc1Cl (stereo not drawn)
-2%	Cc1nn(-c2ccccc2)c(-n2cccc2)c1C(=O)NCCc1ccc(Cl)cc1
-12%	COc1ccc(-c2nc(C)c(CCNC(=O)c3cc(OC)c(OC)c(OC)c3)s2)cc1OC
-3%	COc1cccc2c1cc1c(=O)n(CC(=O)N3CCN(c4ccccc4F)CC3)nc(C)n12
4%	COc1ccc(Cl)cc1N=C1NC(=O)CC(C(=O)Nc2ccccc2C(F)(F)F)S1 (stereo not drawn)
0%	O=C(NC1CCCCC1)c1ccc2c(c1)N(Cc1ccc(Cl)cc1)C(=O)c1ccccc1S2(=O)=O
8%	COc1ccc(S(=O)(=O)N(CC(=O)Nc2cccnc2)c2ccc(Cl)cc2)cc1
-15%	CC(C)(C)c1ccc(-c2nc(SCC(=O)Nc3ccccc3F)n3[nH]c(=O)cc3n2)cc1
16%	Cc1ccccc1CNC(=O)C(=O)NCC(c1ccco1)S(=O)(=O)c1ccc(F)cc1 (stereo not drawn)
11%	CCOc1ccc(-c2cn(-c3ccc(OC)cc3)c(SCC(=O)Nc3ccccc3Cl)n2)cc1
0%	CCOc1ccc(-n2c(C)nc3cc(C(=O)NC4CCCC4)ccc32)cc1
-4%	Cc1ccc(C)c(NC(=O)CN2C(=O)c3cccc4cccc2c34)c1
-2%	O=c1c2ccccc2n(Cc2ccccc2Cl)c(=O)n1CCc1ccccc1
-5%	CC1(C)O[C@H]2[C@@H](O1)[C@@H](C(=O)Nc1ccc(F)c(F)c1)O[C@@H]1OC(C)(C)O[C@@H]12
-1%	CCCCOc1ccc(CNC(=O)Cn2ncn3c(cc4cc(F)ccc43)c2=O)cc1
-1%	Cc1ccc(CNC(=O)CSc2c3c(nc4cc(Cl)ccc24)CCCC3)cc1
1%	COC(=O)c1sccc1S(=O)(=O)N(CC(=O)NCc1ccccc1)c1ccccc1
-4%	O=C(CCn1c(=O)c2cccn2c2cccnc21)NCc1ccccc1Br
-3%	COc1cc(OC)c(NC2=C(c3ccc(C(F)(F)F)cc3)C(=O)c3ccccc32)cc1Cl
2%	CC(=O)c1ccc(N2CCN(S(=O)(=O)c3ccc4[nH]c5c(c4c3)CCCCC5)CC2)cc1
0%	CCCn1c(=O)c(C(=O)NNC(=O)c2ccccc2[N+](=O)[O-])c(O)c2ccccc21
-10%	CCCS(=O)(=O)c1nc(S(=O)(=O)c2ccc(C)cc2)c(NCc2ccccc2Cl)s1
-6%	O=c1c(S(=O)(=O)c2ccccc2)cn(Cc2ccc(F)cc2)c2cc(N3CCOCC3)c(F)cc12
-4%	C#CC(C)(CC)NC(=O)c1cnn2c(C(F)F)cc(-c3ccccc3OC)nc12 (stereo not drawn)
1%	Cc1ccc2oc(-c3cccc(NC(=O)c4ccc(N5CCC(C)CC5)c([N+](=O)[O-])c4)c3)nc2c1
-14%	COc1cccc(C2C(C(=O)Nc3ccc(Cl)cc3)=C(C)Nc3nc4ccccc4n32)c1OC (stereo not drawn)
1%	Cc1ccc(CNC(=O)Cn2c(=O)n(-c3ccc(C)c(F)c3)c(=O)c3sc4ccccc4c32)cc1
23%	Nc1c(-c2nc(-c3ccccc3)cs2)c2ccccn2c1C(=O)c1ccc2c(c1)OCO2
26%	O=C(NCc1ccc2c(c1)CCN2C(=O)c1ccncc1)c1ccc(Cl)cc1

The list goes on.
miR-21 FLuc	structure
-8%	COc1ccc(C(=O)Nc2nc(-c3nnn(-c4ccc(C(C)C)cc4)c3C)ns2)cc1
-1%	CCOC(=O)c1c(NC(=O)CCCOc2ccc(C)cc2)sc2c1CCC(C)C2 (stereo not drawn)
-1%	Cc1ccc(-c2cn3c(n2)sc2cc(C(=O)NCCCc4ccccc4)ccc23)c(C)c1
-1%	Cc1ccc(-c2cc(C(F)(F)F)n3ncc(-c4ccccc4)c3n2)cc1
12%	O=C(CCC1N=C2c3ccccc3N=C(SCc3ccc(Cl)cc3)N2C1=O)NCCc1ccccc1 (stereo not drawn)
-7%	Cc1ccc(-c2nn(CCC(=O)Nc3ccc(OC(F)(F)F)cc3)c(=O)c3ccccc23)cc1
1%	CCOc1ccc(-n2c(=O)c3c(C)c(C)sc3n(Cc3cc(=O)n4cc(Cl)ccc4n3)c2=O)cc1
2%	Cc1ccc(C(=O)N/C(=C\c2ccc(Cl)cc2)C(=O)NC2CCCCC2)cc1
-8%	CN(C)CCNC(=O)C1CCN(c2ncnc3c2nc2n3CCCCC2)CC1
-1%	COc1ccccc1CNC(=O)CN1C(=O)CSc2ccc(S(=O)(=O)N(C)C)cc21
?	CCCCS(=O)(=O)c1oc(-c2ccc(F)cc2)nc1S(=O)(=O)c1ccccc1
0%	CCOc1ccc(/C=C/c2nc3ccccc3n2S(=O)(=O)c2ccc(Br)cc2)cc1
0%	Cc1c(C(=O)Nc2cccc(C(F)(F)F)c2)sc2nc[nH]c(=O)c12
-4%	CCCS(=O)(=O)Nc1cccc(-c2cn3ccsc3n2)c1
-4%	Cc1ccc(-n2c(=O)[nH]c3cc(C(=O)NCCc4ccccc4)ccc3c2=O)cc1
2%	CCc1ccccc1NC(=O)N1CCN(Cc2nc3ccc(C)cc3o2)CC1
-10%	COc1ccc(C(=O)Nc2cc(-c3nc4ncccc4o3)ccc2C)cc1Br
0%	COCCN(CCOC)C(=O)c1cc2c(=O)n3ccccc3nc2n1C
-3%	CCOc1ccc(CCNC(=O)c2cc3n(n2)CCCN(Cc2ccc(C)cc2)C3=O)cc1OCC
?	Cc1ccc(-c2n[nH]c3c2C(c2cccs2)N(c2ccc(Cl)cc2)C3=O)cc1 (stereo not drawn)
20%	COc1ccc(N(C)C(=O)c2cn(C3CCCCC3)c(=O)c3c2c2ccccc2n3C)cc1
-2%	Cc1cccc(Cn2c(=O)n(Cc3ccccc3)c(=O)c3c2c2cc(C)ccc2n3C)c1
-1%	CC1=C(C(=O)Nc2ccccc2)C(c2ccccn2)n2nc(SCc3ccccc3)nc2N1 (stereo not drawn)
10%	CCOC(=O)c1cnc2ccccc2c1Nc1cccc(OC)c1
22%	Cn1c(=O)c2c(nc(NCCc3ccccc3)n2Cc2ccc(Cl)cc2)n(C)c1=O
20%	Cc1ccc(-c2onc(C)c2C)cc1S(=O)(=O)N1c2ccccc2CC1C (stereo not drawn)
-3%	COc1ccc(C)cc1NC(=O)C1CCCN(c2ncnc3onc(C)c23)C1 (stereo not drawn)
-1%	Cc1ccn2c(=O)cc(COc3ccc(NC(=O)COc4ccccc4)cc3)nc2c1
9%	Cc1ccc(/C=C/c2onc(C)c2S(=O)(=O)N2CCC(C(=O)N3CCN(c4cc(C)ccc4C)CC3)CC2)cc1
15%	COc1cc(NC(=O)Cn2c(=O)n(C(C)C)c(=O)c3oc4ccccc4c32)cc(OC)c1
-4%	CCN(CC)CCNC(=O)c1sc2nc3n(c(=O)c2c1C)CCCCC3
8%	O=C(CCC1N=C2c3ccccc3N=C(SCc3cccc(F)c3)N2C1=O)NCc1cccs1 (stereo not drawn)
?	Cc1cc2c(cc1S(=O)(=O)CCC(=O)N1CCC(C)CC1)OCC(=O)N2
-1%	COc1ccc(CCNC(=O)Cn2c(-c3cccs3)cc3cc(F)ccc32)cc1OC
-6%	CCN1CCN(C(=O)c2cnn(-c3ccc(F)cc3)c2-n2cccc2)CC1
0%	O=C(NCc1ccc(Cl)cc1)c1cnc2sc(N3CCCC3)nn2c1=O
-1%	COc1ccc(CNC(=O)CCc2c(C)nn(-c3ccc(N4CCCC4)nn3)c2C)cc1
19%	CCOC(=O)c1ccc(CN(Cc2ccc(C)cc2)S(=O)(=O)c2ccc(NC(C)=O)cc2)cc1
4%	O=S(=O)(c1ccccc1)c1nnn2c1nc(NCc1ccc(F)cc1)c1sccc12
-5%	CCOC(=O)c1c(NC(=O)C(C)Oc2ccccc2F)sc(C(C)=O)c1C (stereo not drawn)
-4%	CCOc1ccc(C(=O)/C=C/c2cn(CC(O)CN3CCc4ccccc43)c3ccccc23)cc1 (stereo not drawn)
-20%	COc1ccc(CNC(=O)C(C)n2nc(C)c3sc4ccccc4c3c2=O)cc1OC (stereo not drawn)
-12%	Cn1nnnc1SCCNCc1ccc(Cl)c(Cl)c1
1%	Cc1ccc(CSc2nc3c(c(=O)[nH]2)C(c2cccc(F)c2F)CC(=O)N3)cc1 (stereo not drawn)
-22%	CCOC(=O)c1c(C)c(-c2ccccc2)n(CC(=O)Nc2cc(C)cc(C)c2)c1C
0%	CC(C)c1ccccc1NC(=O)CSc1nnc(COc2ccccc2)o1
1%	CCC(=O)C1=C(c2ccc(F)cc2)N(C(=O)CC)n2c(nnc2-c2ccc(OC)cc2)S1
0%	COc1ccc(-c2nc3c(c(SC)n2)Cc2c(CO)cnc(C)c2O3)cc1
-12%	COc1ccc(-c2cc3nc(C)c(CCC(=O)NC(C)c4ccccc4)c(C)n3n2)c(OC)c1 (stereo not drawn)
15%	Cc1ccc(-c2onc(C)c2C)cc1S(=O)(=O)N1CCCCC1

The list is partial, so the mix of outcomes need not match the whole.
